A1 inh: inhibitors of the anti-apoptotic protein A1, read as caspase activation; hit rate 0.066% among 330,000; AID 2462; MEF A1-2A-BIM cells, Caspase-Glo 3/7 luminescence, 3 h; percent of clofoctol response, vehicle zero; caspase activation, % (test concentration not listed);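 active means over half of replicate activation scores above 10%, or exactly half above 10 with the replicate mean above 10; inconclusive means replicate mean below 10 yet half the replicates above 10; inactive means over half of replicates below 10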;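 further: wells of about 30 µL received 50 nL stock; many hits fall short of the cut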
LANA-H2A inh: blocks KSHV LANA binding to histone H2A/H2B | cell-free LANA-H2A/H2B peptide, fluorescence polarization | Q9QR71 | hit rate 0.6% among 320,000 | inhibition, % (no concentration beside the values); in the data active means inhibition mostly above about 10%, no sharp cut-off; inactive means mostly below about 6.7%;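 further: stock transfer was 7.5 nL into about 10 µL; 0% = median of vehicle wells and 100% = median of positive control wells; one replicate is shown; the record names a cut of 25% in any replicate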
B2AR ag: activates human beta-2 adrenergic receptor causing internalization; response, % (test concentration not listed); P07550; hit rate 0.43% among 340,000; Am2.2-beta2AR cells, FAP receptor internalization, flow cytometry; reference of the scale not given here;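 active means response above a set limit, near 3 SD of response in nonfluorescent compounds, cut at about 42% in these data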;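 further: stock transfer was 100 nL into about 11 µL; a reference agonist was the positive control; negative values mostly stem from fluorescent compounds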
Target sequence (P07550 whole entry, looked up): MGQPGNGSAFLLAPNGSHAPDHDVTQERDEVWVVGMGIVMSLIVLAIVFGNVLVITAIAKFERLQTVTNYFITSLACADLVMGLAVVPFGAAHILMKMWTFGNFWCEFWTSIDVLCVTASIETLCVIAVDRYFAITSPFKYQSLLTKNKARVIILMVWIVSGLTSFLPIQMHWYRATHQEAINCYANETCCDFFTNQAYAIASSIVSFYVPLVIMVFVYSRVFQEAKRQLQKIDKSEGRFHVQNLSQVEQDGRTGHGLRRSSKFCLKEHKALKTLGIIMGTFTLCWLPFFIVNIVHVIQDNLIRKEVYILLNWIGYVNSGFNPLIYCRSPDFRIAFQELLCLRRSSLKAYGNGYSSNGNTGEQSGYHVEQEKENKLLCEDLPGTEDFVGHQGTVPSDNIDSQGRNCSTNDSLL
Calb FLC: C. albicans growth modulation with fluconazole. C. albicans CaCi-2 (fluconazole-resistant clinical isolate) + fluconazole, Alamar Blue growth, 48 h. hit rate 0.57% among 300,000. AID 1979. growth inhibition, % (no concentration beside the values);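 active means most replicates above 75%; inconclusive means exactly half above 75%; inactive means most below 75%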;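 further: all wells also contain fluconazole at 8 µg/ml as a sub-toxic cotreatment; 0% = median of DMSO wells and 100% = median of geldanamycin control wells; wells of about 8 µL received 7.5 nL stock; the first replicate is given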
RanGTP-Impb inh: inhibitors of RanGTP-importin-beta interaction, primary screen, biochemical, FRET, CFP-Ran, YFP-importin-beta, homogeneous | AID 2216 | inhibition, % (test concentration not listed) | hit rate 1.1% among 300,000 | cell-free CFP-Ran/YFP-importin-beta FRET ratio;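 active means most replicates above 15%; inconclusive means exactly half above 15%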;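 further: 0% = DMSO wells and 100% = Ran loaded with GDP instead of GTP; wells of about 40 µL received 100 nL stock; the first replicate is given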
Beta cell apopt: beta cell apoptosis inhibition; INS-1E cytokine-induced death, ATP luminescence, 48 h; percent of positive-control rescue, neutral wells zero; protection from apoptosis, % (test concentration not listed); hit rate 0.8% among 300,000; AID 435005;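 active means all replicates at 75% or more, or half of them and the mean; inconclusive means half reach 75% but not the mean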;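 further: 0% = cytokine-treated negative control wells and 100% = positive control rescue; higher means more ATP so stronger rescue from cytokine killing; wells of about 40 µL received 100 nL stock; the first replicate is given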
T cruzi inh: blocks replication of Trypanosoma cruzi; hit rate 1.4% among 300,000; inhibition, % (no concentration beside the values); T. cruzi beta-gal in NIH3T3, luminescence, 90 h;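 active means mean inhibition across valid replicates above about 55%, limit read from the data; inconclusive means mean below that limit but half or more replicates reach it; inactive means mean below it, under half of replicates reach it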;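 further: signal also drops with host cell toxicity which is not excluded here; 0% = plate median of DMSO wells and 100% = zero luminescence signal; higher percent means less beta-gal luminescence so fewer parasites; stock transfer was 50 nL into about 50 µL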
UCH37 inh: blocks the human deubiquitinase UCH37; hit rate 0.33% among 330,000; purified proteasome/UCH37, Ub-AMC cleavage fluorescence; Q9Y5K5; inhibition, % (test concentration not listed);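 active means mean of two replicates above 20%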;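 further: 0% = compound-free wells with enzyme and 100% = wells lacking proteasome; stock transfer was 100 nL into about 20 µL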
Target sequence (Q9Y5K5 whole entry, looked up): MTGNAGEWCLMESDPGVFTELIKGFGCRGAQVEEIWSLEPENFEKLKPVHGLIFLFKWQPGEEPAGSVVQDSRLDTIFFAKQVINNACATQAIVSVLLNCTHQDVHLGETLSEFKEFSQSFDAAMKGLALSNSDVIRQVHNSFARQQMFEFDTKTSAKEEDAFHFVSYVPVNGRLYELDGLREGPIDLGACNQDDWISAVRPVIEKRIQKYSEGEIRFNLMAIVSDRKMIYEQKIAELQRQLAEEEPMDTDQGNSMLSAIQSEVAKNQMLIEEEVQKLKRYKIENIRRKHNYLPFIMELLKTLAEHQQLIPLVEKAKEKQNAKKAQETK
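assay system = human UCH37 enzyme supplied as purified proteasome complex | amount = proteasome at 0.15 nM in the dispensed enzyme solution | schedule = 30 min compound-proteasome preincubation then 25 min substrate reaction, room temperature | measured by = fluorescence, ex 355 nm, em 460 nm | benchmarks = no-proteasome wells (full inhibition) and compound-free wells (no inhibition)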
* hit, by the source's call; ? = inconclusive; nt = not tested or not shown.

SMILES	A1 inh	LANA-H2A inh	B2AR ag	Calb FLC	RanGTP-Impb inh	Beta cell apopt	T cruzi inh	UCH37 inh
CN1C(=O)/C(=C/c2ccccc2OCc2ccccc2)NC1=S	-0.2	4.6	-10	9	-1.0	3	9	2.8
CCC(Oc1ccccc1)C(=O)Nc1ccccc1N1CCCCC1 (stereo unspecified)	0.0	-3.0	4	6	1.6	1	27	4.5
CCC(=O)Nc1ccc(Cl)c(NC(=O)c2c(OC)cccc2OC)c1	-0.3	-1.0	-1	3	-4.3	nt	0	4.3
O=C(CN(Cc1ccco1)C(=O)CCC(=O)Nc1nccs1)NCc1ccccc1	0.6	4.5	-2	2	0.6	1	-12	1.7
Cc1ccc(NC(=O)COC(=O)CC2CCCC2)cc1Cl	-1.3	-3.4	-2	-9	2.6	-15	2	1.5
COc1cc(/C=C2\SC(=S)N(C(C(=O)O)c3ccccc3)C2=O)ccc1O (stereo unspecified)	-0.4	-8.9	-3	1	-18	-4	0	13
CCOc1ccc(CCNC(=O)c2cc(-c3ccccc3)c(N3CCOCC3)s2)cc1OCC	-0.1	0.0	8	-2	3.4	-6	26	-0.2
CC(=O)N1CCOc2ccc(S(=O)(=O)NC(C)c3ccccc3)cc21 (stereo unspecified)	-0.9	-5.2	-3	2	0.4	-7	2	-0.4
COc1cccc(/C=N/NC(=O)CNC(=O)c2ccc3c(c2)OCCO3)c1O	0.8	-3.7	7	-57	-0.9	15	-16	nt
CCOc1ccc(CCNC(=O)COC(=O)Cn2nc(C)c([N+](=O)[O-])c2C)cc1OCC	0.5	nt	7	-1	-3.3	-10	-10	2.8
CC1(C)NC(=O)N(CC(=O)O)C1=O	0.3	-3.7	3	0	?	-8	-18	3.5
O=C(N/N=C/c1cc([N+](=O)[O-])ccc1O)c1cc(-c2ccccc2)nc2ccccc12	1.2	3.1	2	-14	4.6	117*	45	nt
CCOC(=O)c1sc(NC(=O)C(C)C)c(C#N)c1C	0.0	-10	-18	7	1.1	1	-17	4.0
CCn1cnc2cc([N+](=O)[O-])ccc21	0.4	3.8	-1	-1	-1.4	3	-17	5.9
CCOc1ccc(C(=O)Nc2ccc(-c3nc4ccccc4[nH]3)cc2)cc1[N+](=O)[O-]	0.5	-1.8	1	-4	2.8	12	-6	7.4
O=C1CC(=O)N(CCc2ccc(F)cc2)C(=O)N1	0.4	0.4	7	-7	?	nt	-1	2.0
Cc1ccc(C(=O)OCC(=O)Nc2ccccc2Sc2ccccc2)cc1C	-0.5	nt	7	-1	0.7	-6	0	0.8
COCCCNC(=O)CCCn1c(=O)c2ccccc2n(CC(=O)Nc2c(C)cc(C)cc2C)c1=O	-0.9	-0.1	2	32	-0.8	3	2	6.8
CCc1nnc(NC(=O)CC(C)c2ccccc2)s1 (stereo unspecified)	0.4	7.4	1	1	1.4	4	-10	4.2
COc1ccc([N+](=O)[O-])cc1NC(=O)C(C)OC(=O)c1cccnc1Cl (stereo unspecified)	1.1	3.6	-8	16	?	-6	-28	1.8
Nc1nc(SCC(=O)NNc2c(Cl)cc(Cl)cc2Cl)n[nH]1	1.1	1.8	-1	3	?	0	-2	-0.9
COC(=O)COc1ccc(C(=O)OC)cc1	1.0	-0.4	27	-22	0.4	-8	-11	-0.6
CC(c1ccco1)N(C(=O)C12CC3CC(CC(C)(C3)C1)C2)c1ccccn1 (stereo unspecified)	1.4	-7.0	4	5	2.7	nt	15	1.8
Cc1ccc(S(=O)(=O)N(C)C[C@@H]2Oc3c(NC(=O)C4CC4)cccc3C(=O)N([C@@H](C)CO)C[C@@H]2C)cc1	-0.5	nt	-7	nt	nt	-10	nt	1.0
Cc1c(C(=O)NC(C)C)oc2c1-c1[nH]ncc1CC2	0.4	-1.5	3	11	5.0	-2	-20	nt
(more compounds)
SMILES	A1 inh	LANA-H2A inh	B2AR ag	Calb FLC	RanGTP-Impb inh	Beta cell apopt	T cruzi inh	UCH37 inh
Nc1nc(NC(=O)/C=C/c2ccc(F)cc2)nn1-c1ccccc1	-0.4	-4.9	-3	-23	?	10	17	4.0
CCOc1ccc(NC(=O)Nc2cc(C)ccc2F)cc1	-7.5	-4.5	-1	-10	-0.6	15	-2	0.1
CC(C)n1cc(/C=C2/SC(=O)N(CC(=O)N3CCCC3)C2=O)c2ccccc21	-0.6	-1.3	-1	2	14	-2	11	-15
COc1cccc2cc(/C(C)=N/NC(=O)c3ccco3)oc12	2.6	1.9	0	7	-1.0	4	5	nt
Cc1ccc(/C=N/N=C2\SCC(=O)N2CC2CC2)cc1	-0.8	-2.7	8	-3	-5.4	1	nt	nt
CCOC(=O)c1nn(-c2c(C)n(C)n(-c3ccccc3)c2=O)cc1O	-0.1	0.0	-2	-8	-3.4	-2	-23	-8.4
O=C1C2CCCN2C(=O)N1CCCN1CCN(c2cccc(Br)c2)CC1 (stereo unspecified)	0.9	0.1	-5	5	3.3	-6	4	5.2
CC(=O)OCCN(Cc1ccccc1)Cc1ccc2c(c1)OCO2	0.2	-2.3	-5	4	0.1	-2	-11	2.3
CCCc1cc(=O)oc2cc(OCC(=O)NCCCn3ccnc3)ccc12	0.1	-1.9	-12	-6	1.3	0	-10	-12
Cc1ccccc1-c1coc2cc(O)ccc2c1=O	-0.9	-2.6	5	nt	nt	nt	nt	-189
COc1ccc(/C=C/C(=O)Nc2sc(Cc3ccccc3)c(C)c2C(N)=O)cc1	-0.1	-1.3	16	1	3.0	2	-28	nt
O=C(O)CN(Cc1ccccc1)S(=O)(=O)c1ccc(F)cc1	0.4	0.2	8	-18	-2.0	1	-2	3.6
Cc1cnc(C(=O)Nc2ccc(C(C)C)cc2)cn1	0.5	6.1	-1	4	13	-8	-13	3.9
O=C(NCc1nnnn1-c1ccc(F)c(F)c1)c1cc2ccccc2o1	-0.1	4.9	2	-8	4.3	-2	-14	2.9
O=C(N/N=C/C1C(c2ccccc2)C1(Cl)Cl)c1cccc(Br)c1 (stereo unspecified)	0.0	-7.6	9	-11	0.5	0	-18	nt
COCn1c(=O)c2c(nc(SC3=NCCS3)n2Cc2ccccc2C)n(COC)c1=O	0.0	0.8	-2	-5	1.8	6	24	6.7
CCc1c(C)nc(SCc2cccnc2)[nH]c1=O	-0.3	2.7	-4	4	-5.5	6	-8	3.0
O=C(O)CSc1c(-c2cccs2)[nH]c2ccccc12	0.5	1.7	1	-3	-12	-9	-5	-8.9
CCOc1ccc(Br)cc1C(=O)N/N=C/c1ccc([N+](=O)[O-])cc1	0.6	-13	-2	-5	-1.2	7	14	nt
CCCCc1c(C)nc2ccc(OC)cc2c1SCCC(=O)O	0.5	-3.0	3	-31	6.3	5	31	-0.9
Cc1cccc(N(C(=O)c2csnn2)C(C(=O)NC2CCCCC2)c2ccccn2)c1C (stereo unspecified)	0.2	-2.2	4	24	-0.6	0	1	1.7
CCOC(=O)N1CCN(c2c(NCc3ccc(Cl)cc3)c(=O)c2=O)CC1	-0.1	-0.2	19	2	3.9	nt	-49	4.9
Cc1ccc(S(=O)(=O)N2CCCC2CNC(=O)C(=O)NCc2ccccn2)cc1 (stereo unspecified)	-0.3	-3.0	2	-2	5.0	-3	9	4.2
CCC(=O)Nc1ccc(S(=O)(=O)NCc2ccco2)cc1	-0.6	5.5	4	-11	-0.3	-4	-6	-0.8
CS(=O)(=O)N1CCC(C(=O)NCCc2ccccc2)CC1	2.1	0.8	-5	1	-3.2	1	-13	1.6

Two successive compounds from above, quoted:
SMILES	A1 inh	LANA-H2A inh	B2AR ag	Calb FLC	RanGTP-Impb inh	Beta cell apopt	T cruzi inh	UCH37 inh
Cc1ccc(/C=N/N=C2\SCC(=O)N2CC2CC2)cc1	-0.8	-2.7	8	-3	-5.4	1	nt	nt
CCOC(=O)c1nn(-c2c(C)n(C)n(-c3ccccc3)c2=O)cc1O	-0.1	0.0	-2	-8	-3.4	-2	-23	-8.4

Later entries
SMILES	A1 inh	LANA-H2A inh	B2AR ag	Calb FLC	RanGTP-Impb inh	Beta cell apopt	T cruzi inh	UCH37 inh
Cc1ccccc1Cn1ccc(NC(=O)c2nc3ncccn3n2)n1	0.5	1.1	-4	-2	3.8	-3	-30	2.8
Cc1ccc(S(=O)(=O)N2CCCCC2)cc1NC(=O)CNc1ccc(C(F)(F)F)cc1	0.9	-1.4	3	-3	-1.6	0	39	3.1
COc1ccc(C(Cl)=C(c2ccc(OC)cc2)c2ccc(OC)cc2)cc1	0.9	39*	-4	-10	3.4	3	20	5.2
OCCC1CN(Cc2ccc3c(c2)CCO3)CCN1Cc1ccc(F)cc1 (stereo unspecified)	0.3	1.9	2	11	?	-2	25	1.1
O=C(NCC1CC1)c1ccc(Oc2cc(Cl)cc(Cl)c2)o1	1.6	3.3	-5	-27	2.6	1	19	3.8
CCCCn1nc(C(=O)NCc2ccccc2CN2CCCC2)c2ccccc2c1=O	0.4	8.3	17	nt	nt	-8	nt	-0.2
COC(=O)c1ccc(CNC(=O)Cn2nnnc2CN(C)C(C)C)cc1	0.8	1.9	-3	-6	3.9	-3	-6	1.8
CCOc1ccc(S(=O)(=O)N2CCN(S(=O)(=O)c3ccc(OCC)cc3)C(C)C2)cc1 (stereo unspecified)	-0.2	2.1	6	4	-1.3	-6	21	-0.8
Cc1nn(CCN)c(C)c1Cl	0.5	-3.2	1	6	0.4	-6	-2	0.4
N#Cc1cnn(-c2ccc(F)cc2)c1N	-0.6	-10	-7	10	-0.3	-9	7	-1.5
CCc1ccc(NC(=O)COn2nnc3ccc(S(=O)(=O)N(C)C)cc32)cc1	-0.7	-2.4	6	7	3.4	-6	8	2.4
Cn1c(N)c(N=O)c(=O)n(C)c1=O	0.0	-8.3	-1	-1	-0.7	nt	-10	-1.0
CCC(=O)Nc1cccc(-c2cn3cccc(C)c3n2)c1	1.0	2.1	-6	-13	-1.1	-1	-12	-8.6
CCOc1ccccc1Oc1cn[nH]c1-c1ccc(OC)cc1O	0.7	0.7	-3	1	2.7	2	-4	1.2
CC1CCCN(S(=O)(=O)c2ccc(S(=O)(=O)N3CCCC3)cc2)C1 (stereo unspecified)	0.3	1.2	1	-7	-0.1	1	-3	0.1
O=C(OCc1ccc([N+](=O)[O-])cc1)c1cc2ccccc2oc1=O	1.8	-2.0	0	4	3.4	nt	5	5.3
CCc1nc(SCc2ccc(C(=O)OC)o2)c2c(=O)n(C)c(=O)n(C)c2n1	-0.3	-0.1	3	-2	4.4	9	0	3.8
Cc1ccccc1-n1cc(CNC(=O)CCc2nnc(CCc3ccccc3)o2)cn1	-0.1	-4.4	-3	-1	-6.1	8	1	1.6
Cc1nc(C(F)(F)F)c(C(=O)N/N=C(\N)c2cccnc2)s1	0.8	0.3	2	-10	-0.5	-1	-9	nt
Cc1nc(Cc2ccc(OC(C)C)cc2)[nH]c(=O)c1CC(=O)O	0.7	0.7	-7	-6	?	-7	-12	2.4
CCOc1ccccc1CN1CCN(Cc2ccc(C)o2)CC1CCO (stereo unspecified)	0.4	3.4	1	-27	-0.9	2	4	2.7
CCC(CC)NC(=O)C1CCN(S(=O)(=O)c2cccs2)CC1	-0.4	5.5	-4	-10	6.2	-1	7	3.3
Cc1c(C(=O)OCC(=O)N2CCCC2)cccc1[N+](=O)[O-]	-0.9	1.6	9	-2	0.2	2	-3	6.4
Cc1cc2c(cc1S(=O)(=O)N1CCN(c3ccc(Cl)cc3)CC1)OCCN2C	-0.3	-0.9	5	-2	1.2	-7	28	-0.7

Screens (PubChem)
